Screening results from PubChem.
VDR inh = Inhibitors of the vitamin D receptor (VDR): qHTS | Vitamin D3 receptor (Homo sapiens), P11473 | VDR-SRC2-3 peptide fluorescence polarization, 2 h | Potency, µM, for inactives: max response, negative = inhibition, hits mostly inhibitors | hit rate 0.93% among 400,000; active means well fitted inhibition curve with a large enough effect; inconclusive means small, poorly fitted or top-dose-only effect, or another doubt; inactive means no such curve, though single readings can be large or run the other way; further: series mostly up to about 120 µM
Target sequence (P11473 whole entry, looked up): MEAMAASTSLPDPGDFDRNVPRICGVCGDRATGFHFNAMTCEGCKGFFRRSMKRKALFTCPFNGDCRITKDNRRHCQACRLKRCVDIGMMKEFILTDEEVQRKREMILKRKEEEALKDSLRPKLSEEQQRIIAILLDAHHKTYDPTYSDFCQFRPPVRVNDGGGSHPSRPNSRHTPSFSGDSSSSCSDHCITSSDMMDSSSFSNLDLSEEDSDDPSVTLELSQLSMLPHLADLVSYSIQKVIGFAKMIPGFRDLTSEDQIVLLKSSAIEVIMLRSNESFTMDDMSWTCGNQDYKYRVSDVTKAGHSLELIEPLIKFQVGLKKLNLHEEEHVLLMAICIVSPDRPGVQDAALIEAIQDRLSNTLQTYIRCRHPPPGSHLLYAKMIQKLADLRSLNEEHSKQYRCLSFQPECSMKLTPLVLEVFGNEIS
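Signal is fluorescence polarization, reporting how far test compounds block the interaction of VDR with the SRC2-3 coregulator peptide after a 2 h room-temperature incubation.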
Active calls of the source: *; u = inconclusive; & = joins results of further samples; [ ] = dose if it differs, or a comment. On the % scale 0 is the no-effect control and ±100 the full control effect; potency means the concentration at half of the fitted maximal effect.

mol | VDR inh
Cc1ccc(S(=O)(=O)NCCCN(C)C)cc1 | -3.4%
COC(=O)c1c(NC(=O)Cn2cnc([N+](=O)[O-])n2)sc2c1CCC(C)C2 (stereo not drawn) | u
COC(=O)C1C(O)CCC2CN3CCc4c([nH]c5ccccc45)C3CC21 (stereo not drawn) | 8.1%
CC(=O)Nc1nc2cc(N)ccc2s1 | -24.8%
COc1cccc(-c2csc(N3CCN(C(=O)Nc4ccc(F)cc4)CC3)n2)c1 | -1.7%
CC(=O)NC(=S)Nc1ccc(S(=O)(=O)N(C)Cc2ccccc2)cc1 | 1.4%
Cc1cc(C)c2c(CC(=O)NC(C)C)coc2c1 | -6.4%
Cc1ccc(C(=O)N2CCc3cc(CNC(=O)c4ccnn4C)ccc32)cc1 | 22.6%
Clc1ccc2c(c1)C=Nc1c(NCc3ccccc3)ncnc1O2 | -12.8%
COC(=O)c1ccc(N2CCOCC2)c(NC(=O)c2cccnc2)c1 | -14.6%
CCN(CC)c1ccc(/C=N/NC(=O)CNC(=O)c2cccnc2)cc1 | 8.2%
Cc1cc(NC(=O)CN2CCCCC2)n(-c2ccccc2)n1 | -7.4%
Cc1[nH]c(C)c(S(=O)(=O)N2CCN(c3cccc(C(F)(F)F)c3)CC2)c1C(=O)N1CCCCC1 | -23.4%
CCN(CC)S(=O)(=O)c1ccc(C(=O)N2CCN=C2SCc2cccnc2)cc1 | -3.4%
CCCc1nn2c(=O)cc(COC(=O)c3ccccc3NC(=O)c3ccc(Cl)cc3)nc2s1 | 6.0%
Cc1c(S(=O)(=O)N2CC(C)CC(C)C2)c(=O)n(C)c(=O)n1C (stereo not drawn) | -13.5%
OCCCCNCc1ccc(OCc2ccc(Cl)cc2)cc1 | 7.9%
CC(C(=O)NC1CCCCC1)N(Cc1ccc(F)cc1)C(=O)c1snc(C(N)=O)c1N (stereo not drawn) | 0.2%
COc1ccccc1C(=O)Nc1nc2nc(C)c(Cc3ccccc3)c(=O)n2[nH]1 | -17.3%
CCC(=O)NC(c1cc(Cl)c2ccccc2c1O)C(C)C (stereo not drawn) | -16.7%
CCCCn1c(SCC(=O)Nc2cc(C)[nH]n2)nc2ccsc2c1=O | 15.7%
Cc1ccc(NC(=O)Cn2cc(S(=O)(=O)Cc3cccc(Cl)c3)c3ccccc32)cc1C | 17.3%
CC(Oc1ccc2ccccc2c1)C(=O)NNC(=S)NC(=O)c1ccco1 (stereo not drawn) | u
COc1ccc(CSc2nc(C)cc(C)c2C#N)cc1 | 13.6%
CCOC(=O)c1cc(C#N)c(N2CCN(C)CC2)nc1-c1ccccc1 | 3.0%
COc1ccc(NC(=O)c2cc([N+](=O)[O-])ccc2N2CCCCC2)cc1OC | -28.3%
C=CC[C@@H](CC(=O)N[C@H](CO)Cc1ccccc1)C(=O)N[C@@H](COC(=O)[C@@H](CC=C)Cc1ccc(F)cc1)Cc1ccccc1 | 5.9%
C(=C1c2ccccc2-c2ccccc21)c1ccncc1 | 2.2%
COc1ccc(C)cc1NC(=O)C12CCC(C)(C(=O)O1)C2(C)C (stereo not drawn) | 3.9%
O=C(C1CC1)N1CCc2cc(Br)cc(S(=O)(=O)NCC3COc4ccccc4O3)c21 (stereo not drawn) | -1.4%
C=CCN1CN(S(=O)(=O)c2cccc(Cl)c2)c2nc3ccccc3nc21 | 7.0%
Cc1ccccc1N1CCN(C(=O)[C@@H]2CCCN2C2=NS(=O)(=O)c3ccccc32)CC1 | 20.0%
CCc1nc2ccc(C(=O)NCCc3ccc(OC)cc3)cc2nc1CC | -6.7%
CN(C)CCCNc1cc(C(C)(C)C)nc2c(-c3ccccc3)cnn12 | -11.5%
COc1ccc(N(CC(=O)N2CCN(C)CC2)S(=O)(=O)c2cc(C)ccc2OC)cc1Cl | -1.4%
COc1ccc(Cl)cc1NC(=O)COC(=O)CC(C)(C)CC1=NS(=O)(=O)c2ccccc2N1 | 4.1%
Cc1cc(S(=O)(=O)N2CCCCC2)ccc1OCC(=O)N1CCOCC1 | -0.7%
Cc1ccccc1OC(C)C(=O)NCCCN1CCOCC1 (stereo not drawn) | 13.1%
COc1ccc(/C=C/C(=O)Nc2nc3n(n2)C(c2ccccc2)C=C(c2ccc(Cl)cc2)N3)cc1 (stereo not drawn) | -1.5%
Cc1cccc2c(=O)cc(CSc3ccccc3NC(=O)C(C)C)[nH]c12 | 10.2%
CCCc1nc(-c2cc3cc(C)ccc3[nH]c2=O)no1 | -14.9%
COc1ccc(C(=O)Nc2c(C(=O)c3ccccc3)oc3ccccc23)cc1 | -12.4%
OCCN=Cc1c(O)[nH]c2ccccc12 | -1.3%
Cc1ccc(/C(O)=C2/C(=O)C(=O)N(Cc3ccco3)C2c2cccs2)cc1 (stereo not drawn) | 8.3%
ON=C1C2CC=C(c3ccccc3)C1CCC2 (stereo not drawn) | -11.4%
CCOC(=O)C1CCN(S(=O)(=O)c2cc3c4c(c2)C(C)C(=O)N4CCC3)CC1 (stereo not drawn) | 2.1%&-1.7%
c1ccc(CN2CCN(c3nc4ccccc4n4cnnc34)CC2)cc1 | -15.6%
Cc1ccc(NC(=O)CSc2nc(=O)n(CCN(C)C)c3c2CCCC3)cc1Cl | -0.6%
COc1ccc(C(=O)O)cc1S(=O)(=O)NCCc1ccccn1 | -16.7%
O=C(O)CCCC(=O)Nc1ccc2c(c1)oc1ccccc12 | -10.2%
O=c1c2[nH]c3ccc(F)cc3c2ncn1CC1CCCO1 (stereo not drawn) | 16.9%
CC(=O)OC1CC(C)(C)N(OC(=O)c2ccccc2)C(C)(C)C1 | 0.4%
Cc1nc(SCN2C(=O)c3ccccc3C2=O)n[nH]1 | -5.6%
COc1ccc(NC(=O)CCC(=O)Nc2nnc(C3CCCCC3)s2)c(OC)c1 | 2.4%
Nc1c2c(nc3ccccc13)N(C1CCCCC1)CC2 | -0.2%
Cc1ccc(C(=O)Nc2ccccc2C(=O)N2CCCC2)cc1[N+](=O)[O-] | 8.4%
O=C(CN1C(=O)NC2(CCCC2)C1=O)NCCc1ccc(Cl)cc1Cl | -12.2%
NC(=O)c1ncc(C(F)(F)F)cc1Oc1cccc(F)c1 | -10.0%
COc1ccc(CNc2ncnc3c2c(-c2ccccc2)cn3-c2cccc(C)c2)cc1 | 2.0%
CSc1nc(NNC=O)cc(Oc2ccc(NC(C)=O)cc2)n1 | -2.6%

Next section.
mol | VDR inh
Cn1c(=O)c2c(ncn2CC(=O)OCC(=O)NCCc2ccccc2)n(C)c1=O | -11.7%
CCOC(=O)c1c(C)[nH]c(C)c1C(=O)COC(=O)c1cccc(S(=O)(=O)NC)c1 | 2.1%
COc1ccccc1CN(C(=O)c1cnccn1)C(C(=O)NC1CCCCC1)c1cc(OC)c(OC)c(OC)c1 (stereo not drawn) | 7.6%
O=C(CNC(=O)c1ccco1)OCc1ccc(C(=O)Oc2ccccc2)cc1 | -4.8%
COCCn1cc(C(=O)N2CCC(C)CC2)c2c3ccccc3n(C)c2c1=O | -4.9%
CCOCCCNC(=O)C1CCC(CNS(=O)(=O)c2ccc(F)cc2)CC1 (stereo not drawn) | 5.6%
O=C(Nc1ccccn1)C1CCN(S(=O)(=O)c2ccc3c(c2)OCCCO3)CC1 | -6.9%
Cc1ccc([C@@H]2CC=C(C(=O)O)[C@H](c3ccc(Cl)cc3)N2S(=O)(=O)c2ccc(C)cc2)cc1 | 7.1%
Cc1ccc(-c2nnc3sc(CCc4ccccc4)nn23)cc1 | -0.5%
COc1ccccc1CN(C)S(=O)(=O)c1cccs1 | 0.6%
Cc1ccc(S(=O)(=O)c2ccc(Cl)cc2)cc1S(=O)(=O)N(C)CC(=O)O | -8.1%
C=C1N(c2ccccc2)C(=O)OC1(C)C | -3.4%
Cc1ccccc1C(=O)Nc1sc2c(c1C(=O)NCc1ccco1)CCC(C(C)(C)C)C2 (stereo not drawn) | 3.5%
Cc1ccc(C(=O)N(Cc2nc(-c3ccc(C)cc3)no2)C(C)C)cc1 | 31.5%[activator]
O=C(NCCc1ccc(Cl)cc1)c1cnc2sc(N3CCCCC3)nn2c1=O | 6.4%
O=C1S/C(=C\c2ccc(O)c([N+](=O)[O-])c2)C(=O)N1c1ccccc1Cl | u
CCc1ccc(NCc2cc3cc4c(cc3n(CC(=O)Nc3ccccc3C)c2=O)OCCO4)cc1 | 2.7%
CCc1ccc(NC(=O)CSc2ccc(-c3sc(C)nc3C)nn2)cc1 | 8.1%
Cc1cc(C2=NNC(=NC3CC3)SC2)c(C)n1Cc1ccco1 | u
C/C=C(\C)CN1CCC(n2nccc2NC(=O)CCOc2ccccc2)CC1 | -3.5%

Shown with the structure last: 3 of the compounds above
VDR inh,compound
u,O=C1S/C(=C\c2ccc(O)c([N+](=O)[O-])c2)C(=O)N1c1ccccc1Cl
-3.5%,C/C=C(\C)CN1CCC(n2nccc2NC(=O)CCOc2ccccc2)CC1
-0.5%,Cc1ccc(-c2nnc3sc(CCc4ccccc4)nn23)cc1

A section taken from the entries so far:
mol | VDR inh
Cc1ccc(S(=O)(=O)NCCCN(C)C)cc1 | -3.4%
COC(=O)c1c(NC(=O)Cn2cnc([N+](=O)[O-])n2)sc2c1CCC(C)C2 (stereo not drawn) | u
COC(=O)C1C(O)CCC2CN3CCc4c([nH]c5ccccc45)C3CC21 (stereo not drawn) | 8.1%
CC(=O)Nc1nc2cc(N)ccc2s1 | -24.8%
COc1cccc(-c2csc(N3CCN(C(=O)Nc4ccc(F)cc4)CC3)n2)c1 | -1.7%
CC(=O)NC(=S)Nc1ccc(S(=O)(=O)N(C)Cc2ccccc2)cc1 | 1.4%

Going on with the list:
mol | VDR inh
O=C(Cc1ccccc1)NCC(=O)OCC(=O)c1ccc([N+](=O)[O-])cc1 | -19.5%
COCCN1C(=O)N[C@@H](c2ccco2)C(C(=O)OC)=C1C | -9.0%
COc1ccc(/C=C/c2nc3ccccc3c(=O)n2-c2cccc(C(=O)O)c2)cc1 | 6.1%
CCCNC(=O)C1(S(=O)(=O)c2ccccc2)CC=CC1 | -0.7%
C/C(=N\N=c1/sc2ccccc2n1C)c1ccc(N2CCOCC2)cc1 | -3.8%
c1ccc2c(c1)OC1OC2Oc2ccccc21 | -8.6%
O=C(NC1CCCCC1)c1ccc(CS(=O)(=O)c2ccc(Cl)cc2)o1 | -13.5%
Brc1ccc(-c2cn3cccnc3n2)cc1 | 15.3%
CN1C(=O)c2ccccc2C(C(=O)NCCCN2CCCC2=O)C1c1c[nH]c2ccccc12 (stereo not drawn) | 7.0%
O=C(NC12CC3CC(CC(C3)C1)C2)N1CCN(C2CCCCC2)CC1 | u
COc1ccc(C(=O)COC(=O)CCN2C(=O)[C@@H]3[C@H](C2=O)[C@@H]2C[C@H]3C(Br)C2Br)cc1 (stereo partly drawn) | -4.8%
Cc1ccccc1NC(=O)CSC(N)=O | 25.1µM*
O=C(CN1C(=O)NC2(CCCCCC2)C1=O)Nc1ccc(S(=O)(=O)N2CCOCC2)cc1 | 2.0%
COc1cc2c(cc1OC)CN(S(=O)(=O)/C=C/c1ccccc1)CC2 | -9.9%
COC(=O)c1c(SCC(=O)Nc2ccccc2OC)[nH]c2ccccc2c1=O | 13.1%
O=C(COc1ccccc1C(=O)c1cnn(-c2ccccc2)c1)Nc1ccccc1 | -16.3%&7.1%
CN(C)S(=O)(=O)c1ccc(Cl)c(NC(=O)CN2CCN(c3ccccn3)CC2)c1 | -4.8%
C=C(c1ccc(O)cc1)c1ccc(O)cc1 | -1.4%
COCCOC1CCN(C(=O)c2cc(COc3ccc(-n4cncn4)cc3)on2)CC1 | -4.4%
COc1cc(C2C(C#N)=C(N)Oc3n[nH]c(C)c32)ccc1OC(=O)c1ccccc1 (stereo not drawn) | 7.8%
C=C1SC(Nc2c(C)cc(C)cc2C)=NC12CCCCC2 | -22.2%
O=C(Nc1cc([N+](=O)[O-])ccc1N1CCCC1)c1ccccc1 | 4.2%
Cn1cccc1/C=N/NC(=O)Cc1ccccc1 | -14.2%
Cc1ccc2c(c1)N(C(=O)CCC(=O)NCc1cccc(Br)c1)CC(C)O2 (stereo not drawn) | 3.1%
COc1ccccc1Cn1c(CCCO)nc2ccccc21 | -4.9%
COc1cccc(Cn2c(=O)n(CC3CCC(C(=O)NC(C)C)CC3)c(=O)c3sccc32)c1 (stereo not drawn) | 10.8%
Cc1nn(C)cc1CNC(=O)Nc1ccc(Cl)cc1 | 11.2%
Clc1ccc2nc(CSc3nncn3-c3ccccc3)cn2c1 | -1.0%
CCOc1ccccc1CN(Cc1ccco1)S(=O)(=O)c1ccc(-n2cnnn2)c(OC)c1 | 4.5%
CC(C)(C)OC(=O)CC1(C#N)c2ccccc2C(Br)=CN1C(=O)c1ccccc1 (stereo not drawn) | -17.1%
COc1ccccc1NC(=O)c1nn(-c2ccc(OC(F)(F)F)cc2)ccc1=O | -17.3%
CCCCC(=O)C1=C(N2CCCC2)CC(C)(C)CC1=O | -1.0%
COc1ccc(OC)c(Cc2nnc(CCC(=O)NC3CCCC3)o2)c1 | 11.5%
CCCN1CCN(C(=S)Nc2sc(CC)cc2C(=O)OC)CC1 | -22.1%
CCC(C)n1ncn(-c2ccc(N3CCN(c4ccc(OC)cc4)CC3)cc2)c1=O (stereo not drawn) | -3.3%
COc1ccccc1OC(C)C(=O)Nc1c(C(=O)c2ccc(Cl)cc2)oc2ccccc12 (stereo not drawn) | -14.8%

The list is partial. The share of hits here may be higher or lower than overall.
